ALR inh = inhibitors of human sulfhydryl oxidase ALR. P55789. inhibition, % (concentration not given with the values). purified ALR, DTT oxidation, H2O2 HRP-luminol luminescence. 290,000 tested, 3.8% active;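 active = mean and each replicate at 75% or more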;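 also: stock transfer was 7.5 nL into about 7.5 µL; 0% = neutral wells and 100% = wells with inactivated enzyme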
HNF4A DNA FP = change in binding of human HNF4 alpha to DNA; P41235; HNF4a-FITC DNA binding, fluorescence polarization, 1 h; activity change, % at 10 µM; 360,000 tested, 0.3% active; AID 1224865; in the data active = activity change above about 30%, passing the limit was not always enough;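 also: controls were the assay level and a saturating level of protein; the project sought stronger binding though the title names inhibitors; some compounds called inactive have numbers as strong as hits; positive values seem to mean higher polarization but the record does not say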
Target sequence (P41235 whole entry, looked up): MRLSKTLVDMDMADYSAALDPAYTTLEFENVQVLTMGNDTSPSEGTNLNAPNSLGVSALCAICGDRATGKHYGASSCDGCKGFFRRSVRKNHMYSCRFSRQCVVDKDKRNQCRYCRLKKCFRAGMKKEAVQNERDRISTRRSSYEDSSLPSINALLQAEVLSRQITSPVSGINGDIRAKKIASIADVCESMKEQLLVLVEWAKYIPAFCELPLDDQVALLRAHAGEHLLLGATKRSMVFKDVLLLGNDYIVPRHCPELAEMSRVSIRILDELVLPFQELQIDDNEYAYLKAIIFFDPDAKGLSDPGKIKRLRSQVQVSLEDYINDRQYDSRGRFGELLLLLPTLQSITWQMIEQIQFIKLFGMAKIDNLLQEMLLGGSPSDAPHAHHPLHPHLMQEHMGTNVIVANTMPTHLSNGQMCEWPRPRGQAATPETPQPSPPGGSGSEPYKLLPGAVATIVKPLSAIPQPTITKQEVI
UCH37 inh = human UCH37 deubiquitinating enzyme inhibition. Q9Y5K5. purified proteasome/UCH37, Ub-AMC cleavage fluorescence. inhibition, % (concentration not given with the values). 330,000 tested, 0.33% active. AID 588478;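 active = mean of two replicates above 20%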;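 also: 0% = compound-free wells with enzyme and 100% = wells lacking proteasome; stock transfer was 100 nL into about 20 µL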
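assay system = human UCH37 enzyme supplied as purified proteasome complex | amount = proteasome at 0.15 nM in the dispensed enzyme solution | schedule = 30 min compound-proteasome preincubation then 25 min substrate reaction, room temperature | measured by = fluorescence, ex 355 nm, em 460 nm | benchmarks = no-proteasome wells (full inhibition) and compound-free wells (no inhibition)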
B2AR ag = human beta-2 adrenergic receptor agonism by FAP | AID 504454 | 340,000 tested, 0.43% active | Am2.2-beta2AR cells, FAP receptor internalization, flow cytometry; reference of the scale not given here | response, % (concentration not given with the values) | P07550;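 active = response above a set limit, near 3 SD of response in nonfluorescent compounds, cut at about 42% in these data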;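 also: stock transfer was 100 nL into about 11 µL; a reference agonist was the positive control; negative values mostly stem from fluorescent compounds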
Target sequence (P07550 whole entry, looked up): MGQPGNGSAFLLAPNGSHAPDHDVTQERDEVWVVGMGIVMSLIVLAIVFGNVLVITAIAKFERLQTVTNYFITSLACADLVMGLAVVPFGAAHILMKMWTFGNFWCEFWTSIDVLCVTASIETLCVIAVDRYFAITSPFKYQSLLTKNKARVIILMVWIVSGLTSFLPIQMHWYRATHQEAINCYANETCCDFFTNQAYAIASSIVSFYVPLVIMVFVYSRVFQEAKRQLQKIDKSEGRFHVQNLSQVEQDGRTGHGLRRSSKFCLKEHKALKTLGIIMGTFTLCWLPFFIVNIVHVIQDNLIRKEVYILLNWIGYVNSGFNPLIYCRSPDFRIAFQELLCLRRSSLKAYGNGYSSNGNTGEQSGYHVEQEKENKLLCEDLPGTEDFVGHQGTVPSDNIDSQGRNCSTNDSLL
Ecoli growth = inhibitors of Escherichia coli growth; AID 1053175; 330,000 tested, 0.21% active; OD600, 23 h; stronger effect = lower value; OD600 absorbance (test concentration not listed);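 active = OD600 absorbance below the run mean of sample wells minus 3.6 SD, in any replicate, cut at about 0.56 in these data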;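 also: stock transfer was 300 nL into about 60 µL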
rRNA inh HTS = inhibitors of bacterial rRNA selective over humanized ribosomes; GFP signal change (wild-type ribosome), % (concentration not given with the values); E. coli WT GFP vs humanized-ribosome RFP mutants, fluorescence, 24 h; stronger effect = lower value; DMSO median 0, no signal -100; 350,000 tested, 1.6% active;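 active = significant combined selectivity score with lowered wild-type GFP, culture density cut under 30%, mutant RFP and density less affected; inactive = any of these conditions unmet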; also: one replicate is shown; some compounds called inactive have numbers as strong as hits
FGF22 binding = FGF22 (human) thermal shift binding; AID 651658; calls only at 9.99 µM; recombinant FGF22 thermal shift, SYPRO orange fluorescence; percent of sucrose octasulfate shift, DMSO zero; Q9HCT0; 340,000 tested, 1.5% active;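 active = melting point raised past a set limit in the mean and every replicate; three in four hits are not shown here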
Target sequence (Q9HCT0 whole entry, looked up): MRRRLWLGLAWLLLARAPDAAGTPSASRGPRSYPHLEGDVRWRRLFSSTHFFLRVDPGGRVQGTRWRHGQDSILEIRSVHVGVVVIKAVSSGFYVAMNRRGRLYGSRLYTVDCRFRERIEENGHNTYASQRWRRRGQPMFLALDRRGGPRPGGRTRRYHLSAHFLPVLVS
rRNA inh HTS OD600 = further read-out of rRNA inh HTS, marked with its call; OD600 change, %; measured here: OD600 growth;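 optical density of the mix in the first replicate; 0 = DMSO median and -100 = no signal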
rRNA inh HTS RFP = further read-out of rRNA inh HTS, marked with its call; RFP signal change, %; measured here: RFP humanized mutant strains;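 first replicate; 0 = DMSO median and -100 = no signal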
* hit, by the source's call; i = inactive; . = no result given; & = joins results of further samples. Not all compounds are listed. The share of hits here may be higher or lower than overall.

ALR inh,HNF4A DNA FP,UCH37 inh,B2AR ag,Ecoli growth,rRNA inh HTS,rRNA inh HTS OD600,rRNA inh HTS RFP,FGF22 binding,smiles
-31,-1.8,1.5,4,0.72,-3,-7,-0.9,i,O=C(COC(=O)C1CCN(S(=O)(=O)c2cccs2)CC1)NCc1ccccc1
-12,-0.4,4.7,87*,.,7,12,14,i,Cc1cccc(/C=C/C(=O)c2ccc([N+](=O)[O-])o2)c1
.,-1.9,-9.1,2,0.66,4,6,0.0,i,O=C(CCc1ccccc1)Nc1nnc(-c2ccccn2)o1
-16,-5.0,.,4,.,.,.,.,.,COc1ccc(C2CC2/C(C)=N/OC(=O)c2cccs2)cc1 (configuration not stated)
-5,0.5,3.2,0,.,.,.,.,.,CCOC(=O)[C@@H]1[C@H]2COc3cc(OC)ccc3[C@@H]2N2C(=O)N(c3cccc(Cl)c3)C(=O)[C@]12C
4,1.0,1.0,-7,0.66,.,.,.,.,O=C(Nc1nnc(COc2ccccc2)s1)c1ccco1
-11,0.1,4.8,0,0.64,-6,2,-0.5,i,COC(=O)[C@H](Cc1ccccc1)NC(=O)N1Cc2ccccc2C[C@H]1C(=O)OC
1,-5.1,0.1,6,0.72,-2,-3,-3.3,i,O=C(CCC1CCCCC1)NCc1cccnc1
-23,-0.3,0.0,15,0.71,.,.,.,.,CN1c2ccccc2C2(C)CCCC3=Cc4cccc([N+](=O)[O-])c4OC312 (configuration not stated)
0,-3.7,4.1,-7,0.66,.,.,.,.,Clc1ccc2c(c1)C(c1cccs1)=NNC(c1cccnc1)=N2
3,-0.2,0.6,-14,0.72,-26,-29,-11,i,CN(Cc1ccccc1Cl)C(=O)CNC(=O)C12CC3CC(CC(C3)C1)C2
.,0.8,.,.,.,-30,-52,32,i,CCCCCCCCN1C(=O)[C@H](CC(=O)N2CCN(C(=O)C3CC3)CC2)C[C@@]2(C(=O)OCC)CCCC=C12
.,4.3,3.1,5,0.66,0,-3,-1.5,i,O=C(CCc1ccccc1)Nc1cc(S(=O)(=O)N2CCOCC2)ccc1N1CCCC1
-6,-0.3,0.2,11,0.69,9,18,0.7,i,O=C(Nc1ccnn1C1CCN(C2CCCC2)CC1)c1ccccc1
-4,-0.3,1.4,0,0.6,.,.,.,.,COC(=O)c1ccc(C)c(NC(=O)CCSc2ccc(C)cc2)c1
-1,-0.4,1.5,-7,0.71,-6,-10,1.9,i,O=C(Nc1ccc(F)cc1)c1cc(S(=O)(=O)N2CCCCC2)ccc1F
-2,-1.6,0.8,-2,0.67,.,.,.,i,Cc1nc(CSc2n[nH]c(=O)n2-c2cccc(F)c2)cs1
-14,1.3,4.3,-3,0.72,.,.,.,.,C=CCn1cc(C(=O)NCC2CCCO2)c(=O)c2cc(S(=O)(=O)N3CCCCCC3)ccc21 (configuration not stated)
7,1.7,3.8,-7,0.71,-2,4,-3.9,i,Cc1cc(CNC(=O)c2ccc3c(c2)OCO3)c2ccccc2n1
57,1.1,4.8,15,0.65,-15*,2.8*,3.7*,i,COc1ccc(C(=O)Nc2ccc(Nc3ccccc3)cc2)cc1[N+](=O)[O-]
13,2.9,2.9,6,0.68,.,.,.,.,CCn1c(CNc2ccccc2Cl)nnc1SCC(=O)OC1CCCCC1
20,0.5,-40,11,0.66,5,9,-4.6,i,O=C(c1cnn(C(=O)c2ccco2)c1)c1cc(F)ccc1O
-1,-0.9,5.1,4,0.62,-1,4,0.2,i,CC(C)NS(=O)(=O)c1ccc(NC(=O)Cc2ccsc2)cc1
0,-2.1,0.0,10,0.7,-8,-5,-8.0,i,Cc1ccccc1NC(=O)c1ccccc1NC(=O)Cc1cccc2ccccc12
-1,2.0,1.0,4,.,-7,-13,-1.1,i,COC(=O)/C=C/c1ccccc1CN1[C@@H](CC(=O)OC)c2ccccc2S1(=O)=O
-1,0.6,2.2,-15,0.69,.,.,.,.,CCCN(CCC)c1ncnc2c1cnn2-c1ccc(OC)cc1
-2,-1.1,3.3,-7,0.69,.,.,.,.,Cc1c(Cl)c([N+](=O)[O-])nn1CCCC(=O)Nc1cc(Cl)ccc1Cl
.,0.1,0.9,-3,0.68,16,15,-9.1,.,Cc1ccc(CN2C(=NC(=O)CCC(=O)O)SC3CS(=O)(=O)CC32)cc1 (configuration not stated)
.,-2.4,3.7,11,0.69,8,-1,-4.8,i,O=C(/C=C/c1cccc([N+](=O)[O-])c1)Nc1ccccc1N1CCOCC1
13,-8.8,1.3,-6,0.77,.,.,.,.,CCc1ccc2c(c1)C1(NN=C(c3ccc(C)cc3)S1)C(=O)N2 (configuration not stated)

Single records, as listed above. Values in the order: ALR inh, HNF4A DNA FP, UCH37 inh, B2AR ag, Ecoli growth, rRNA inh HTS, rRNA inh HTS OD600, rRNA inh HTS RFP, FGF22 binding
O=C(c1cnn(C(=O)c2ccco2)c1)c1cc(F)ccc1O is entered as 20, 0.5, -40, 11, 0.66, 5, 9, -4.6, i
O=C(Nc1ccc(F)cc1)c1cc(S(=O)(=O)N2CCCCC2)ccc1F is entered as -1, -0.4, 1.5, -7, 0.71, -6, -10, 1.9, i

New compounds follow:
ALR inh,HNF4A DNA FP,UCH37 inh,B2AR ag,Ecoli growth,rRNA inh HTS,rRNA inh HTS OD600,rRNA inh HTS RFP,FGF22 binding,smiles
-8,-4.2,-0.5,0,0.67,14,11,6.8,i,O=S(=O)(NC1CC1)c1ccc(S(=O)(=O)N2CCN3CCCC3C2)cc1 (configuration not stated)
.,-2.4,.,.,.,3,15,0.3,i,CC(=O)c1ccc(OCC(=O)Nc2ccc3c(c2)OCO3)cc1
-25,5.2,2.0,0,0.7,.,.,.,.,COc1ccc(NC(=O)NCc2cccnc2)cc1OC
83*,-1.5,3.9,1,0.68,0,10,17,i,COc1ccc(N2CCN(c3ccc(NC(=O)/C=C\C(=O)O)cc3)CC2)cc1
4,3.8,1.1,9,0.71,-12,-19,-1.0,i,CCC(Oc1ccccc1)C(=O)O/N=C(\N)c1ccc(OC)c(OC)c1 (configuration not stated)
2,1.7,-2.6,-1,0.71,-10,-16,-6.2,i,O=C(COC(=O)C12CC3CC(CC(O)(C3)C1)C2)NC12CC3CC(CC(C3)C1)C2
1,4.1,-0.9,-3,0.54,-17,-18,3.1,.,FC(F)Oc1ccc(NC(=S)NCc2nc3ccccc3[nH]2)cc1
20,-1.6,.,-4,.,-13,-35,-2.9,i,Cc1ccc(NC(=O)NNC(=O)c2sccc2-n2cccc2)cc1
-5,12,0.8,-6,0.66,-11,-15,5.1,i,CCC1CCCCN1CCCNC(=O)Cn1nc(-c2ccccc2)ccc1=O (configuration not stated)
0,2.4,6.4,10,0.77,.,.,.,.,N#Cc1c(N)c(C(=O)c2ccc(Cl)cc2)n2c1CCC2
-13,4.4,3.6,-8,0.67,-1,-5,-4.7,i,CC(=O)Nc1ccc(S(=O)(=O)Nc2ccc(-c3ccc4nnc(C)n4n3)cc2)cc1
-12,1.4,2.4,20,0.71,6,12,-0.1,i,COc1ccc(CNC(=O)c2cc3cccc(OC)c3oc2=N)cc1
-10,1.1,-122,-14,0.71,7,8,0.3,i,COC(=O)c1sc2nc(SCc3ccccc3C)n(N)c(=O)c2c1C
-16,-4.6,-1.3,17,0.73,.,.,.,.,CC(C)[C@H](NC(=O)c1ccc(Cl)c([N+](=O)[O-])c1)C(=O)NCc1ccc(Cl)cc1Cl
0,2.1,3.0,8,0.68,-14,-17,3.1,i,COc1ccc(NC(=O)c2cc3ccccc3o2)cc1S(=O)(=O)N1CCCCC1
1,-2.6,2.8,-1,0.74,-2,-16,-7.1,i,CCCCC(CC)C(=O)Nc1cc(C(=O)NCc2ccc(C)cc2)ccc1N1CCC2(CC1)CC(c1ccccc1)=NO2 (configuration not stated)
-1,0.1,-0.2,3,0.71,.,.,.,.,Cc1nnc(SCc2cc(=O)n3[nH]cnc3n2)s1
3,43*,18,-14,0.7,7,11,-2.0,.,CC(=O)N1CCc2cc(N=NC3=C(O)CCCC3=O)ccc21
-2,-0.3,1.3,-3,0.66,-28*,-18*,-1.9*,i,CC(=O)NCCc1nc2ccccc2n1CCOc1cccc(C)c1
-8,-1.4,1.5,1,0.69,15,20,7.2,i,Cc1ccccc1-c1nc(CS(=O)(=O)CC(=O)N2CCOCC2)c(C)o1
.,2.0,.,.,.,7&3,13&8,-0.9&0.4,i,C[C@H]1CN([C@@H](C)CO)C(=O)CCCn2nncc2CO[C@@H]1CN(C)Cc1ccncc1
43,-1.6,6.4,-2,0.75,0&12,3&12,0.5&3.5,i,C[C@H]1CN([C@@H](C)CO)C(=O)c2cccc(NC(=O)C3CC3)c2O[C@H]1CN(C)C(=O)Nc1ccc2c(c1)OCO2
5,3.6,6.0,-2,0.66,3,8,-0.2,i,Cc1nc2c(=O)[nH]c(=S)n(C)c2nc1C
0,7.2,1.0,-5,0.68,11,-1,3.6,i,C=CCn1c(C(C)NC(=O)CC)nc2ccccc21 (configuration not stated)
.,-2.0,-0.6,16,0.68,5,5,-4.9,i,OCC1OC(c2ccccc2)OC2COC(c3ccccc3)OC12 (configuration not stated)
-1,-2.9,-0.3,-9,0.7,.,.,.,.,Clc1ccc(-c2nnc(-c3ccccc3Cl)o2)cc1
.,2.5,.,3,.,7,12,3.3,i,CC(C)C[C@@H](CNCC(=O)[C@H](Cc1c[nH]c2ccccc12)NC(=O)c1[nH]cnc1C(=O)N[C@@H](C)CN)NC(=O)c1nc[nH]c1C(=O)N[C@@H](CC(=O)O)C(=O)O
-22,0.6,2.6,25,0.7,4,2,0.5,i,Cc1cccc(NS(=O)(=O)c2ccc(C(=O)NCC3(N4CCCCC4)CCCCC3)cc2)c1C
3,-3.1,2.6,-4,0.7,0,6,-0.4,i,O=C(c1ccccc1Cl)N1CCN(S(=O)(=O)N2CCCCC2)CC1
-8,5.8,2.6,-1,0.69,.,.,.,.,O=C(Nc1cnn(Cc2ccc(Cl)cc2)c1)c1cnccn1

Brought forward from above: four entries; new compounds follow.
ALR inh,HNF4A DNA FP,UCH37 inh,B2AR ag,Ecoli growth,rRNA inh HTS,rRNA inh HTS OD600,rRNA inh HTS RFP,FGF22 binding,smiles
.,2.5,.,3,.,7,12,3.3,i,CC(C)C[C@@H](CNCC(=O)[C@H](Cc1c[nH]c2ccccc12)NC(=O)c1[nH]cnc1C(=O)N[C@@H](C)CN)NC(=O)c1nc[nH]c1C(=O)N[C@@H](CC(=O)O)C(=O)O
-22,0.6,2.6,25,0.7,4,2,0.5,i,Cc1cccc(NS(=O)(=O)c2ccc(C(=O)NCC3(N4CCCCC4)CCCCC3)cc2)c1C
3,-3.1,2.6,-4,0.7,0,6,-0.4,i,O=C(c1ccccc1Cl)N1CCN(S(=O)(=O)N2CCCCC2)CC1
-8,5.8,2.6,-1,0.69,.,.,.,.,O=C(Nc1cnn(Cc2ccc(Cl)cc2)c1)c1cnccn1
-15,-5.1,-15,-4,0.72,5,4,-2.2,i,Cc1ccc2c(c1)c1nc3ccccc3nc1n2C
18,3.8,1.9,-7,0.66,.,.,.,.,COc1cnc(-c2ccccn2)nc1Sc1ccc(Cl)cc1
0,1.2,3.5,-5,0.73,.,.,.,.,COc1cccc(N(CC(=O)NC2CCCC2)C(=O)Cn2nnc(-c3ccc(C)cc3)n2)c1
-15,0.9,.,1,.,-16,-13,1.7,i,O=C(O)c1cc([N+](=O)[O-])cc([N+](=O)[O-])c1N1CCN(c2cccc(C(F)(F)F)c2)CC1
18,-1.0,13,-9,0.66,6,9,-3.0,i,Nc1n[nH]c(N)c1N=Nc1ccccc1F
-22,-1.3,0.5,6,0.65,-23,-25,-4.4,i,CC(=O)c1ccc(OCCCC(=O)N2CCN(S(=O)(=O)c3cc(C)ccc3C)CC2)cc1
